NPYLR7 ag: agonists of mosquito NPYLR7 receptor, primary screen, cell-based, Aedes aegypti, calcium fluorescence, mosquito biting behavior. Aedes aegypti neuropeptide Y-like receptor 7 (NPYLR7). HEK293T NPYLR7/Galpha15, GCaMP6s calcium fluorescence. activation, % at 10 µM. 270,000 compounds, 0.15% hits. AID 1259423, 2018; in the data active = activation above about 40%;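 also: 0% = vehicle and 100% = reference agonist at the receptor; some compounds past the cut are filed as inactive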
NPYLR7 ag max-min: recorded beside NPYLR7 ag, whose call it bears; activation, %; measured here: Max-Min RFU normalised activation; some inactives read as strong as hits;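 span of the calcium signal over five minutes; 0% = vehicle and 100% = native peptide agonist; compound fluorescence can raise it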
* marks the source's active call; other numbers are inactive results; & = joins results of further samples. The list is partial; the hit share may differ from the screen's.

SMILES | NPYLR7 ag | NPYLR7 ag max-min
CC(C)CN1CCNC(=O)C1CC(=O)N(C)Cc1csc(C(C)C)n1 (configuration not stated) | 9 | 7
Cn1c(O)c(ON2C(=O)c3ccccc3C2=O)n(-c2ccc(Br)cc2)c1=O | 10 | 4
Cc1ccc(S(=O)(=O)NCc2cc(=O)[nH]c3ccccc23)c(F)c1 | 5 | 4
Cc1ccccc1C(=O)Nc1cccc(C2SCC(=O)N2c2ccc3c(c2)OCO3)c1 (configuration not stated) | -5 | 0
O=S(=O)(c1cc(F)ccc1N1CC[C@H](O)C1)C(F)(F)F | 3 | 3
CCCOc1cc(Nc2ccc(NC(=O)Nc3ccccc3OC)cc2)nc(C)n1 | 32 | 29
Cc1cc(NC(=O)c2cccc3ccccc23)n(-c2nc(C)c(C)c(=O)[nH]2)n1 | 9 | 3
COc1ccc(C(=O)Nc2cccnc2)cc1[N+](=O)[O-] | -5 | -15
CC1CN(C(=O)CCCSc2nnc(Cc3ccccc3)n2-c2ccc(Cl)c(Cl)c2)CCN1C(=O)c1ccc(Cl)c(Cl)c1 (configuration not stated) | 8 | 2
O=C(OCc1cc(-c2ccccc2F)on1)c1c[nH]c2ccccc12 | -2 | -5
Cc1nc(C(C)NC2CCN(CCc3ccccc3)CC2)n[nH]1 (configuration not stated) | 8 | 4
COC(=O)c1cccc(NC(=O)C2COc3ccccc3O2)c1 (configuration not stated) | 0 | 0
COc1ccccc1C1CC(c2ccc(F)cc2)=NN1C(=O)CN1CCN(c2ccccc2F)CC1 (configuration not stated) | -1 | 4
Cc1cc(NC(=O)CCN(C)C(C)c2ccccc2Cl)no1 (configuration not stated) | -1 | -5
O=C(/C=C/c1ccccc1Cl)Nc1nnc(-c2ccncc2)o1 | 12 | 6
CCc1ccc2oc(-c3ccc(NC(=O)c4cccc(Cl)c4Cl)cc3)nc2c1 | -2 | 0
Cc1ccccc1-n1ncc(C(C)NC(=O)c2cccs2)c1C (configuration not stated) | 1&1 | 2&-5
O=c1ccc2ccc(O[C@@H]3O[C@H](CO)[C@@H](O)[C@H](O)[C@H]3O)c(O)c2o1 | 3 | 1
CC(=O)N1CCN(CC(=O)Nc2cccc(-c3nnc4n3CCCCC4)c2)CC1 | 13 | 3
O=C(c1ccccc1-c1ncc[nH]1)N1CCC2(CC1)C(=O)Nc1ccccc12 | 5 | 4
CC(C)(C)c1csc(N(CCC#N)CCC#N)n1 | -4 | -4
CN1CC(=O)N(CC(=O)Nc2nccn2Cc2ccc(Br)cc2)C1=O | 1 | 5
COc1ccc(-n2nnnc2SCCOc2ccc(Br)cc2)cc1 | 3 | 0
CCc1nc2c(OCc3cccc(Cl)c3)cccn2c1N(C)C(=O)CC(C)C | -16 | -6
N#Cc1cc(NC(=O)C(=O)NCCc2nccs2)ccc1F | 4 | -7
COc1ccc(NC(=O)N2CCc3cc(OC)c(OC)cc3C2c2cccc(Cl)c2)c(OC)c1 (configuration not stated) | 21 | 6
COc1cc(C=C2N=C(c3ccccc3F)OC2=O)cc(OC)c1OCC(N)=O | -2 | -3
O=C(C1=CC=CN2CCS(=O)(=O)N=C12)N1CCN(c2ncccn2)CC1 | 1 | -6
O=C(C1CCOC1)N1CC(=O)N(C2CCCCC2)CC(OCc2ccccc2)C1 (configuration not stated) | 5 | -9
N#Cc1ccccc1CSc1nnc2ccccn12 | 0 | 5
CCc1ccccc1NC(=O)Nc1ccc(Nc2cc(-n3ccnc3)ncn2)cc1 | -12 | -14
CCc1[nH]c(C(=O)NC(C)c2ccccc2F)c(C)c1C(=O)OC (configuration not stated) | 8 | 2
C=C(C)COc1cccc(C(=O)Nc2ncn[nH]2)c1 | 0 | -1
CC1CCCN(S(=O)(=O)c2ccc(C(=O)N(C)C(C)c3nc4ccccc4s3)cc2)C1 (configuration not stated) | 0 | 2
CC1(Cc2ccc(C(F)(F)F)nc2)C(=O)Nc2cc(-c3ccc(F)cc3F)ccc21 (configuration not stated) | 4 | 10
CCCCOc1ccc(C(=O)Nc2cc3c(cc2Cl)OCCCO3)cc1 | -3 | -3
CNC(=O)[C@H]1C[C@]2(CCCCN(CCO)C2=O)N(C(=O)COc2ccccc2)[C@H]1c1ccccc1 | 0 | 8
CCOC(=O)Cn1c(CN2CCC(C)CC2)nc2c1c(=O)n(C)c(=O)n2C | 8 | 3
O=C(CCc1ccco1)N1CCN(Cc2ccc(-c3noc(-c4cccc(C(F)(F)F)c4)n3)cc2)CC1 | 27 | 17
O=C(NCc1cccc(F)c1)C(C1CCCC1)N1CCN(C(=O)c2ccc(Cl)c(Cl)c2)CC1 (configuration not stated) | -1 | 6

One compound at a time, from the list above:
Record of `Cc1nc(C(C)NC2CCN(CCc3ccccc3)CC2)n[nH]1` (configuration not stated) : NPYLR7 ag: 8; NPYLR7 ag max-min: 4
Record of `Cc1ccc(S(=O)(=O)NCc2cc(=O)[nH]c3ccccc23)c(F)c1` : NPYLR7 ag: 5; NPYLR7 ag max-min: 4

(cont.)
SMILES | NPYLR7 ag | NPYLR7 ag max-min
O[C@@H]1C[C@H]2CN(CC(c3ccccc3)c3ccccc3)C[C@H]2C[C@@H]1O | 15 | 9
COCCN(CCC(=O)NC1CC1)c1nc(-c2ccccc2)nc2ccccc12 | -4 | -2
O=C(NCCCn1ncccc1=O)Nc1ccc(C(F)(F)F)cc1 | -7 | -11
CCC1COCCN1C(=O)Nc1ccc(C(C)(C)C#N)cc1 (configuration not stated) | -22 | -24
CC(C)c1cc(C(=O)N2CCN(C)C(c3ccccc3)C2)n[nH]1 (configuration not stated) | -7 | -9
CC(C#N)Sc1ncnc2sc3c(c12)CCC3 (configuration not stated) | 9 | 15
COc1ccc(C2=NOC(CNCc3ccccc3)C2)cc1OC (configuration not stated) | 0 | -6
Cc1ccc(-c2nc(SCC(=O)NCCc3ccccc3)c3c(=O)n(C)c(=O)n(C)c3n2)cc1 | -2 | -4
COCCN(CC1CCN(Cc2ccccc2OC)CC1)C(=O)c1ccc(F)cc1Cl | 9 | 5
Cn1c(SCC(=O)NC(=O)NC2CCCC2)nnc1-c1ccco1 | 2 | -2
COCCN(Cc1cccc(OC)c1)CC(O)COC(C)(C)C (configuration not stated) | 8 | 12
O=C(CCN1C(=O)/C(=C\c2ccc(F)cc2)SC1=S)NNC(=O)c1ccncc1 | 21 | 24
CCOC(=O)C1CCN(C(=O)CC(c2ccc3c(c2)OCO3)c2c[nH]c3c(CC)cccc23)CC1 (configuration not stated) | 5 | 8
O=C(Cn1nc2nc(Nc3ccc(F)cc3)ccn2c1=O)Nc1cc(F)ccc1F | -10 | -12
O=C(CCC1CCCCC1)NNC(=O)CCN1CCN(c2ccccc2)CC1 | 10 | 3
Nc1ccc(S(=O)(=O)Nc2ccc(I)cc2)cc1 | 4 | 4
O=c1cc(CSc2ncnc3ccccc23)nc2ccc(Br)cn12 | 12 | 17
CCC1(C)OC(=O)N(CCCn2ccnc2C)C1(C)O (configuration not stated) | -2 | -2
COc1ccc(S(=O)(=O)Oc2cccc(CN(Cc3ccc(F)cc3)C(=O)c3cccs3)c2)cc1 | 9 | 5
CCS(=O)(=O)Nc1ccccc1C1=NN(S(=O)(=O)CC)C(c2ccc(C)cc2)C1 (configuration not stated) | 0 | -2
Cc1nc(CC(=O)n2cc(C(=O)c3cc(F)ccc3O)cn2)cs1 | 6 | 5
O=C1OCC2(CCN(c3nccc(C4CCCC4)n3)CC2)O1 | 1 | 2
CCc1nc(SC2CCN(c3ccc(Cl)cc3)C2=O)n[nH]1 (configuration not stated) | 2 | -1
CC(=O)N1CCN(C(=O)C=Cc2c(C)nn(Cc3ccccc3Cl)c2C)CC1 | 1 | 5
CC1=CC[C@@H]2CN(C(=O)CCn3nnc4ccccc43)C[C@@H]2C1 | 0 | -1
O=C(NCCc1ccccn1)c1csc(COc2cccc(C(F)(F)F)c2)n1 | 0 | 13
CCCN1CCCN(C(=O)c2ccc3nc(C)c(C)nc3c2)CC1 | 7 | 5
COc1cc(C(=O)NCCn2nc(C)c(Cl)c2C)ccc1O | 15 | -1
CCC1=NN(C(=O)c2ccccc2Cl)C(O)(c2ccc(Cl)cc2)C1 (configuration not stated) | 12 | 11
COc1ccc(CN2CCN(CC(O)COc3cc(Cl)ccc3Cl)CC2)cc1 (configuration not stated) | 0 | -4
O=C(O)c1ccc(NS(=O)(=O)c2sccc2Br)cc1Cl | -1 | -1
CC1CCCCC1NC(=O)c1c(O)nc2ccccn2c1=O (configuration not stated) | -1 | 23
Clc1cccc(N2CCN(C3CCCN(Cc4cccnc4)C3)CC2)c1 (configuration not stated) | 0 | 0
COc1ccc(OC)c(N2C(=O)C3C4C=CC(C5CC45)C3C2=O)c1 (configuration not stated) | -9 | -14
CCc1ccc(CN2CCCC(CNC(=O)c3cccc(OC)c3OC)C2)o1 (configuration not stated) | -9 | -6
COc1ccc(/C=C/C(=O)NCC2Cc3cccc(-c4cccnc4)c3O2)cc1 (configuration not stated) | 15 | 4
COc1ccc(-n2nc(C(=O)N3CCN(C(C)=O)CC3)c(=O)n(Cc3ccccc3F)c2=O)cc1 | 4 | 11
CC(Oc1ccccc1)C(=O)NC1CC2CCC(C1)N2Cc1ccoc1 (configuration not stated) | 17 | 27
CSc1ccc2cc(CN(C)Cc3nccn3C)c(=O)[nH]c2c1 | 7 | 5
CCN(CC)Cc1oc(CO)cc(=O)c1O | 15 | 15
CCOC(=O)C(C)Sc1nc2c(c(=O)n1-c1ccccc1)SCC2 (configuration not stated) | -4 | -5
Cc1nc2n(n1)C(=O)C(C(c1ccc(F)cc1)N1CCC3(CC1)OCCO3)S2 (configuration not stated) | 4 | 1
CN(C)C(=O)NC1CCS(=O)(=O)C1 (configuration not stated) | 2 | 0
CCc1cccc(NC(=O)N2CCN(C(=O)c3cc(-c4cccc(OC)c4)n(-c4ccccc4F)c3C)CC2)c1 | -1 | 3
CCCCCn1c(N2CCN(Cc3ccccc3)CC2)nc2c1c(=O)[nH]c(=O)n2C | 0 | 32
CCCC(C)c1nc(N2CCCN(C(=O)Cc3cccs3)CC2)c2cnn(-c3ccccc3)c2n1 (configuration not stated) | -1 | -1
O=C(c1ccccn1)N1CCCC(O)(CO)CC1 (configuration not stated) | 3 | 4
Nc1c(Cl)ncnc1NC1CCCC1 | 8 | 7
O=C(Cn1cnc2c(cnn2C2CCS(=O)(=O)C2)c1=O)c1ccc(Cl)cc1 (configuration not stated) | 0 | -2
CC1(C(=O)NCc2cccnc2)CCN1C(=O)C/C=C/c1ccccc1 (configuration not stated) | 1 | -5
Cc1sc2nc(CCN)nc(N3C[C@H]4CC[C@H]3C4)c2c1C | -3 | -6
COc1ccc(/C=C2\C=C(c3ccccc3)N(c3ccc(F)cc3)C2=O)cc1Br | -1 | 6
CCCCC(=O)Nc1ccc(-n2nc(OC(C)C)nc2-c2ccccc2C)cc1 | -5 | -2
Cc1cc(NC(=O)Cc2cccs2)n(-c2nc3ccccc3s2)n1 | -13 | -18
CCOCCCN(Cc1nc(C(=O)OC)cs1)C(=O)Nc1ccc(Br)cc1 | -7 | -6
O=C(NC1CCN(c2ccccc2C(=O)N2CCN(c3ccccn3)CC2)CC1)c1ccc(Cl)cc1Cl | 0 | 9
CC(C)=CCC[C@](C)(O)C1CC=C(C)CC1 (some centres not stated) | -9 | -3
Cc1cc2nc(C=Cc3cc4c(cc3[N+](=O)[O-])OCO4)sc2cc1C | -1 | -2
Oc1ccccc1N1CCN(Cc2csc(C3CCCC3)n2)CC1 | -27 | -24
O=[N+]([O-])c1ccc(NNC(=S)Nc2ccccc2)cc1 | 2 | 1
(cont.)
SMILES | NPYLR7 ag | NPYLR7 ag max-min
Cc1cc(C)cc(N2CCN(Cc3ccc4ncccc4c3)CC2=O)c1 | 2 | 0
c1ccc(Sc2c(-c3ccccc3)nc3ncccn23)cc1 | -2 | -3
O=C(CCCOc1ccccc1)N(Cc1cccc(Oc2ccc(Cl)cc2)c1)Cc1ccco1 | -15 | -24
O=C(CSc1nnc(CNC(=O)c2cccs2)o1)NCc1ccco1 | 0 | -3
O=C(NCCN1CCCCC1)C1CCCN1C(=O)C1CCCCC1 (configuration not stated) | 13 | 7
Cc1nc2c(OCC(=O)c3ccc(Cl)cc3Cl)cccn2c1N(C)Cc1cccs1 | 0 | -5
O=C(NCC1(c2ccccc2)CCOCC1)C1CCOC1 (configuration not stated) | 18 | 9
CC(C)(C)c1cc(CN2CCCN(C(=O)c3ccco3)CC2)[nH]n1 | 6 | 4

Of the compounds above, these contain an NH in an aromatic ring:
SMILES | NPYLR7 ag | NPYLR7 ag max-min
Cc1ccc(S(=O)(=O)NCc2cc(=O)[nH]c3ccccc23)c(F)c1 | 5 | 4
Cc1cc(NC(=O)c2cccc3ccccc23)n(-c2nc(C)c(C)c(=O)[nH]2)n1 | 9 | 3
O=C(OCc1cc(-c2ccccc2F)on1)c1c[nH]c2ccccc12 | -2 | -5
Cc1nc(C(C)NC2CCN(CCc3ccccc3)CC2)n[nH]1 (configuration not stated) | 8 | 4
O=C(c1ccccc1-c1ncc[nH]1)N1CCC2(CC1)C(=O)Nc1ccccc12 | 5 | 4
CCc1[nH]c(C(=O)NC(C)c2ccccc2F)c(C)c1C(=O)OC (configuration not stated) | 8 | 2
C=C(C)COc1cccc(C(=O)Nc2ncn[nH]2)c1 | 0 | -1
CC(C)c1cc(C(=O)N2CCN(C)C(c3ccccc3)C2)n[nH]1 (configuration not stated) | -7 | -9
CCOC(=O)C1CCN(C(=O)CC(c2ccc3c(c2)OCO3)c2c[nH]c3c(CC)cccc23)CC1 (configuration not stated) | 5 | 8
CCc1nc(SC2CCN(c3ccc(Cl)cc3)C2=O)n[nH]1 (configuration not stated) | 2 | -1
CSc1ccc2cc(CN(C)Cc3nccn3C)c(=O)[nH]c2c1 | 7 | 5
CCCCCn1c(N2CCN(Cc3ccccc3)CC2)nc2c1c(=O)[nH]c(=O)n2C | 0 | 32
CC(C)(C)c1cc(CN2CCCN(C(=O)c3ccco3)CC2)[nH]n1 | 6 | 4
